ugtP null kill – compounds lethal to S. aureus RN4220 ugtP deletion mutant; OD600 growth, 16 h; some inactives read as strong as hits; growth inhibition, % (no concentration beside the values); 330,000 tested, 0.54% active; AID 1259309;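 active means z-score under -3 and OD600 up to 0.15 on both plates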;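 further: plate controls were untreated wells for no effect and antibiotic for full effect; wells of about 80 µL received 100 nL stock; the first replicate is given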
Autofluor counter – counter-screen for toxin protease inhibitors: compound fluorescence | compound autofluorescence counterscreen, microsphere flow cytometry; active compounds read high | fluorescence intensity (test concentration not listed) | 360,000 tested, 3.1% active;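 active means at least 3 SD above the mean of all compounds, about 16000 in these data; inconclusive means too few beads counted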;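 further: 100 nL of 1 mM stock went into each well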
Mtb hypoxia rep – Mtb hypoxia fluorescent reporter inhibition. 300,000 tested, 0.1% active. M. tuberculosis hypoxia-regulated fluorescent reporter, fluorescence. fluorescence inhibition, % (no concentration beside the values);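 active means 35 to 45% if threefold the growth effect, above 45% if 1.5-fold the growth effect; inactive means the rest, general growth blockers included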;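 further: wells of about 50 µL received 100 nL stock; 0% = vehicle wells and 100% = reference inhibitor wells; whole bacteria with a GFP reporter of the hypoxia response; strong numbers were not always called active; many hits fall short of the cut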
PrP 5UTR inh – suppresses PrP 5' UTR mRNA reporter expression; cell-based PrP 5' UTR mRNA reporter, plate reader; inhibition, % (concentration not given with the values); 340,000 tested, 0.35% active; AID 488862;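 active means every replicate at 50% or more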;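 further: 0 = median of the neutral control wells; tested in H4 reporter cells; numbers are from one replicate; inactives centre near -14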
BJeLR lethal – BJeLR cell viability loss; BJeLR (HRASV12) viability, CellTiter-Glo ATP luminescence, 48 h; reference of the scale not given here; 300,000 tested, 0.17% active; inhibition, % (concentration not given with the values);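 active means replicate mean above 50%; inconclusive means above 50% but judged a plate artefact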;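 further: 50 nL library stock added to about 25 µL; numbers are from one replicate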
Sa RN4220 lethal – S. aureus RN4220 growth inhibition | OD600, 16 h | inhibition, % (test concentration not listed) | 330,000 tested, 0.33% active | AID 1259311;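 active means z-score of -3 or lower and OD600 up to 0.18 on both plates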;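 further: plate controls were untreated cells for no effect and reference antibiotic for full effect; stock transfer was 100 nL into about 80 µL; one replicate is shown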
Mtb hypoxia rep growth – further read-out of Mtb hypoxia rep, marked with its call; growth inhibition, %; measured here: M. tuberculosis growth (absorbance);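 0% = vehicle and 100% = reference antibiotic; read after six days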
Starred values were filed as active, the others as inactive.

`C/C(Cn1nnc([N+](=O)[O-])n1)=N\NC(=O)c1cccc(Cl)c1` gave Autofluor counter 8461, PrP 5UTR inh -21 and BJeLR lethal -2.
Screening O=C(CSc1nnc(NC(=O)c2c(F)cccc2F)s1)NC1CC1 returned ugtP null kill -2, Autofluor counter 3902, Mtb hypoxia rep 9, PrP 5UTR inh -16, BJeLR lethal 4, Sa RN4220 lethal 2.0 and Mtb hypoxia rep growth -4.
S=c1[nH]ccn1Cc1ccccc1 was read as ugtP null kill 5, Autofluor counter 4484, Mtb hypoxia rep 7, PrP 5UTR inh -22, BJeLR lethal 7, Sa RN4220 lethal 7.3 and Mtb hypoxia rep growth 7.
`O=C(OCCCCN1C(=O)c2ccccc2C1=O)c1n[nH]c2ccccc12` gave ugtP null kill -11, Autofluor counter 4313, Mtb hypoxia rep 4, PrP 5UTR inh -18, BJeLR lethal 1, Sa RN4220 lethal 12 and Mtb hypoxia rep growth 3.
`O=C(NCc1ccccn1)C12CC3CC(CC(C3)C1)C2` gave ugtP null kill 7, Autofluor counter 2017, Mtb hypoxia rep 11, PrP 5UTR inh 10, BJeLR lethal 0, Sa RN4220 lethal 3.0 and Mtb hypoxia rep growth 20.
For COc1ccc(CCC(=O)Nc2ncc(C)s2)cc1 the results were ugtP null kill 2, Autofluor counter 3805, Mtb hypoxia rep 1, PrP 5UTR inh -17, BJeLR lethal -8, Sa RN4220 lethal 0.3 and Mtb hypoxia rep growth 12.
`COc1ccccc1/C=C/C(=O)N1CCN(S(=O)(=O)c2cccs2)CC1` gave ugtP null kill 3, Autofluor counter 3510, Mtb hypoxia rep 12, PrP 5UTR inh -4, Sa RN4220 lethal 2.7 and Mtb hypoxia rep growth 8.
Screening CC1=NN(c2ccccc2)C(=O)C1N=Nc1cccc(O)c1 (stereo unspecified) returned ugtP null kill -1, Autofluor counter 4052, Mtb hypoxia rep -1, PrP 5UTR inh -68, BJeLR lethal -4, Sa RN4220 lethal -4.1 and Mtb hypoxia rep growth 2.
`O=C1OC(C(=O)Nc2ccccc2)Cc2ccccc21` (stereo unspecified) gave ugtP null kill 4, Autofluor counter 4318, Mtb hypoxia rep 5, PrP 5UTR inh -39, Sa RN4220 lethal 8.0 and Mtb hypoxia rep growth 18.
For CCn1nc(C(=O)Nc2ccccc2C)c(Cl)c1Cl the results were ugtP null kill 1, Autofluor counter 7868, Mtb hypoxia rep -1, PrP 5UTR inh -30, BJeLR lethal 0, Sa RN4220 lethal -0.5 and Mtb hypoxia rep growth -4.
For Cn1c(SCCN2CCOCC2)nc2sc3c(c2c1=O)CCCC3 the results were ugtP null kill -2, Autofluor counter 4231, Mtb hypoxia rep 16, PrP 5UTR inh -11, BJeLR lethal 3, Sa RN4220 lethal 4.3 and Mtb hypoxia rep growth 3.
Screening N#CCSc1nccc(-c2cc(Cl)sc2Cl)n1 returned ugtP null kill -4, Autofluor counter 2207, PrP 5UTR inh -3, BJeLR lethal -12 and Sa RN4220 lethal 8.7.
For CCOC(=O)C1C2COc3cc(OC)ccc3C2N2C(=O)CN(Cc3ccc(Cl)cc3)C(=O)[C@@]12C (stereo partly specified) the results were ugtP null kill 10, Mtb hypoxia rep 5, Sa RN4220 lethal 5.4 and Mtb hypoxia rep growth 3.
O=C(Cn1nc2n(c1=O)-c1ccccc1SC2)N/N=C/c1ccncc1 was read as Autofluor counter 4320, PrP 5UTR inh -11 and BJeLR lethal -4.
For COCCNC(=S)N1CCN(c2nc(-c3ccccc3)cs2)CC1 the results were ugtP null kill 24, Autofluor counter 3547, Mtb hypoxia rep 20, PrP 5UTR inh -27, BJeLR lethal 1, Sa RN4220 lethal -9.4 and Mtb hypoxia rep growth 14.
`Cc1ccc(-n2nnnc2-c2cnc(-c3cccnc3)nc2C(F)(F)F)cc1` gave ugtP null kill -1, Autofluor counter 4039, Mtb hypoxia rep 19, PrP 5UTR inh -28, BJeLR lethal 4, Sa RN4220 lethal 3.2 and Mtb hypoxia rep growth 14.
For COC(=O)c1cc(S(=O)(=O)NCC2CCN(Cc3cc(C)ccc3C)CC2)cn1C the results were ugtP null kill -2, Mtb hypoxia rep 3, PrP 5UTR inh -19, BJeLR lethal 9, Sa RN4220 lethal -1.1 and Mtb hypoxia rep growth 10.
`CCCCN(C)C(=O)c1sc2ncn(CC)c(=O)c2c1C` gave ugtP null kill -4, Autofluor counter 3106, Mtb hypoxia rep 19, PrP 5UTR inh -21, BJeLR lethal -4, Sa RN4220 lethal -13 and Mtb hypoxia rep growth 7.
`CCN(CC(=O)Nc1ccc(NC(C)=O)cc1)C(=O)C1(c2ccccc2)CC1` gave ugtP null kill 7, Autofluor counter 3854, Mtb hypoxia rep 16, PrP 5UTR inh -2, Sa RN4220 lethal 3.4 and Mtb hypoxia rep growth 7.
Screening Cc1ccc2nc3c(cc2c1)c(NC(=O)c1ccco1)nn3CC(C)C returned ugtP null kill -17, Autofluor counter 3936, Mtb hypoxia rep -5, PrP 5UTR inh -11, BJeLR lethal -9, Sa RN4220 lethal 3.8 and Mtb hypoxia rep growth -1.
O=C(c1ccco1)N1CCN(C(=O)c2cc3ccccc3oc2=O)CC1 was read as ugtP null kill 10, Autofluor counter inconclusive, Mtb hypoxia rep 4, PrP 5UTR inh -11, BJeLR lethal 4, Sa RN4220 lethal 1.1 and Mtb hypoxia rep growth 1.
Screening CCOc1ccc(S(=O)(=O)Nc2ccccc2C(=O)NCc2ccco2)cc1 returned ugtP null kill -3, Autofluor counter 3209, Mtb hypoxia rep 2, PrP 5UTR inh -9, BJeLR lethal 8, Sa RN4220 lethal 1.1 and Mtb hypoxia rep growth 1.
Screening COc1ccc(-c2nc(CSCC(=O)N3CCc4ccccc4C3)c(C)o2)cc1OC returned ugtP null kill 14, Autofluor counter 5506, PrP 5UTR inh -21, BJeLR lethal -15 and Sa RN4220 lethal 0.2.
`CC1CC(C)CN(CC(=O)NNC(=O)COc2ccc(Cl)cc2)C1` (stereo unspecified) gave ugtP null kill 5, Autofluor counter 8045, Mtb hypoxia rep -5, PrP 5UTR inh -16, Sa RN4220 lethal 3.2 and Mtb hypoxia rep growth -4.

2 records picked at random from the list so far, as already listed:
Screening COc1ccc(-c2nc(CSCC(=O)N3CCc4ccccc4C3)c(C)o2)cc1OC returned ugtP null kill 14, Autofluor counter 5506, PrP 5UTR inh -21, BJeLR lethal -15 and Sa RN4220 lethal 0.2.
O=C(Cn1nc2n(c1=O)-c1ccccc1SC2)N/N=C/c1ccncc1 was read as Autofluor counter 4320, PrP 5UTR inh -11 and BJeLR lethal -4.

(continued)
`Cc1ccc(C)c(NC(=O)NCc2ccccn2)c1` gave ugtP null kill 2, Autofluor counter 4876, Mtb hypoxia rep 12, PrP 5UTR inh -15, BJeLR lethal -5, Sa RN4220 lethal 2.2 and Mtb hypoxia rep growth -1.
`O=S(=O)(c1cccc(F)c1)N1CCCN(c2ccc(C(F)(F)F)cn2)CC1` gave ugtP null kill 9, Autofluor counter 4146, Mtb hypoxia rep 13, PrP 5UTR inh -8, BJeLR lethal 10, Sa RN4220 lethal 6.9 and Mtb hypoxia rep growth 6.
Screening COc1ccc(NC(=O)C2CCCN2C(=O)OC(C)(C)C)cc1 (stereo unspecified) returned ugtP null kill -2, Autofluor counter 5297, Mtb hypoxia rep 1, PrP 5UTR inh -22, BJeLR lethal 10, Sa RN4220 lethal 4.8 and Mtb hypoxia rep growth 2.
O=C(OCn1nnc2ccccc2c1=O)C1=COCCO1 was read as ugtP null kill 1, Autofluor counter 4484, Mtb hypoxia rep 9, PrP 5UTR inh 4, BJeLR lethal -2, Sa RN4220 lethal 0.7 and Mtb hypoxia rep growth 6.
Screening CCOC(=O)c1cc2ccccc2n1CCN(CC)CC returned ugtP null kill 1, Autofluor counter 8577, Mtb hypoxia rep 1, BJeLR lethal -5, Sa RN4220 lethal 1.8 and Mtb hypoxia rep growth 8.
COc1ccc(N2CCN(S(=O)(=O)c3cc4c5c(c3)C(C)C(=O)N5CCC4)CC2)cc1 (stereo unspecified) was read as ugtP null kill 7, Autofluor counter 7177, Mtb hypoxia rep 6, PrP 5UTR inh -25, BJeLR lethal 8, Sa RN4220 lethal 5.7 and Mtb hypoxia rep growth 1.
`CC(=O)N(C(C)=O)c1nc2nc(C)cc(C)n2n1` gave ugtP null kill 9, Autofluor counter 3090, Mtb hypoxia rep -6, PrP 5UTR inh -21, BJeLR lethal -4, Sa RN4220 lethal 0.4 and Mtb hypoxia rep growth 3.
COc1ccccc1-n1c(CNC(=O)COc2ccccc2)n[nH]c1=S was read as ugtP null kill -3, Autofluor counter 6720, Mtb hypoxia rep -5, PrP 5UTR inh -5, BJeLR lethal -2, Sa RN4220 lethal -2.7 and Mtb hypoxia rep growth -3.
`CC(=NCCCNC1CCCCC1)C1=C(O)CC(C)(C)CC1=O` gave ugtP null kill -3, Autofluor counter 2948, Mtb hypoxia rep 12, PrP 5UTR inh -22, BJeLR lethal 7, Sa RN4220 lethal 7.6 and Mtb hypoxia rep growth 4.
Screening O=C(NCc1ccccc1C(F)(F)F)C1CC(c2cccc(F)c2)=NO1 (stereo unspecified) returned ugtP null kill 1, Autofluor counter 4086, Mtb hypoxia rep 3, PrP 5UTR inh -15, BJeLR lethal 8, Sa RN4220 lethal 1.6 and Mtb hypoxia rep growth 8.
COc1ccc(NC(=O)c2oc3ccccc3c2CSC)cc1S(=O)(=O)N1CCOCC1 was read as ugtP null kill 9, Autofluor counter 3033, Mtb hypoxia rep 14, PrP 5UTR inh -16, Sa RN4220 lethal 4.0 and Mtb hypoxia rep growth 8.
CCc1c(-c2ccccc2)nc2sc3c(c2c1N)CCCC3 was read as ugtP null kill 81, Autofluor counter 5346, Mtb hypoxia rep -3, PrP 5UTR inh -51, BJeLR lethal 1, Sa RN4220 lethal 1.4 and Mtb hypoxia rep growth -8.
For C=CCN(c1ccccc1OC)S(=O)(=O)c1cccc(C(=O)NCc2cccs2)c1 the results were ugtP null kill 8, Autofluor counter 4566, Mtb hypoxia rep 3, PrP 5UTR inh -11, Sa RN4220 lethal 2.3 and Mtb hypoxia rep growth 3.
`Cc1ccc(S(=O)(=O)N2CCOCC2)cc1NC(=O)Cn1c(=O)ccn(Cc2ccccc2)c1=O` gave ugtP null kill 7, Mtb hypoxia rep 9, PrP 5UTR inh -9, Sa RN4220 lethal 4.8 and Mtb hypoxia rep growth 7.
For OCC[C@H]1C[C@@H](O)[C@H](O)[C@]2(CCCO2)O1 the results were Autofluor counter 3783, PrP 5UTR inh 6 and BJeLR lethal -2.
For O=C(CSc1nc2ccccc2c(=O)n1Cc1ccco1)NCCN1C(=O)CSC1=O the results were ugtP null kill 7, Autofluor counter 5108, Mtb hypoxia rep 15, PrP 5UTR inh -32, BJeLR lethal -7, Sa RN4220 lethal 3.3 and Mtb hypoxia rep growth 1.
For O=C(c1ccccc1Br)N1CCn2c1nc1ccccc12 the results were ugtP null kill -4, Autofluor counter 5015, Mtb hypoxia rep 8, PrP 5UTR inh -18, BJeLR lethal 0, Sa RN4220 lethal 3.2 and Mtb hypoxia rep growth 8.
Screening COc1ccc(-c2cc3c(=O)n(CC(=O)NCCCc4ccccc4)ncn3n2)cc1 returned ugtP null kill 2, Autofluor counter 6506, Mtb hypoxia rep 4, PrP 5UTR inh -48, BJeLR lethal 5, Sa RN4220 lethal -13 and Mtb hypoxia rep growth 9.
CC(=O)N(C1=NCCCS1)c1ccc(F)cc1 was read as ugtP null kill -7, Autofluor counter 10990, Mtb hypoxia rep -2, PrP 5UTR inh -25, BJeLR lethal 2, Sa RN4220 lethal -0.9 and Mtb hypoxia rep growth 12.
Cc1ccc(S(=O)(=O)N2C(c3ccc4c(c3)OCO4)CC=C(C(=O)O)C2c2cccc(Cl)c2)cc1 (stereo unspecified) was read as ugtP null kill 31, Mtb hypoxia rep 5, Sa RN4220 lethal 15 and Mtb hypoxia rep growth 6.
`COC(=O)c1cc(OCC(=O)Nc2ccc3c(c2)CCC3)cc(C(=O)OC)c1` gave ugtP null kill -14, Autofluor counter 4347, Mtb hypoxia rep 4, PrP 5UTR inh -15, Sa RN4220 lethal 6.2 and Mtb hypoxia rep growth 7.
CCOC(=O)C1C2COc3ccc(Br)cc3C2N2C(=O)CN(CC3CCCO3)C(=O)[C@@]12C (stereo partly specified) was read as ugtP null kill 4, Mtb hypoxia rep 16, Sa RN4220 lethal 5.9 and Mtb hypoxia rep growth 7.

High-throughput results from PubChem.
